Screening data as filed in PubChem.
T cruzi inh = T. cruzi replication inhibition; T. cruzi beta-gal in NIH3T3, luminescence, 90 h; inhibition, % (no concentration beside the values); actives 1.4% (n = 300,000);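 active = mean inhibition across valid replicates above about 55%, limit read from the data; inconclusive = mean below that limit but half or more replicates reach it; inactive = mean below it, under half of replicates reach it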;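 note: signal also drops with host cell toxicity which is not excluded here; 0% = plate median of DMSO wells and 100% = zero luminescence signal; higher percent means less beta-gal luminescence so fewer parasites; stock transfer was 50 nL into about 50 µL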
Beta apoptosis = beta cell apoptosis inhibition | INS-1E cytokine-induced death, ATP luminescence, 48 h; percent of positive-control rescue, neutral wells zero | actives 0.8% (n = 300,000) | AID 435005 | protection from apoptosis, % (test concentration not listed);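 active = all replicates at 75% or more, or half of them and the mean; inconclusive = half reach 75% but not the mean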;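 note: 0% = cytokine-treated negative control wells and 100% = positive control rescue; higher means more ATP so stronger rescue from cytokine killing; wells of about 40 µL received 100 nL stock; the first replicate is given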
UCH37 inh = human UCH37 deubiquitinating enzyme inhibition. purified proteasome/UCH37, Ub-AMC cleavage fluorescence. actives 0.33% (n = 330,000). inhibition, % (test concentration not listed). Q9Y5K5;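 active = mean of two replicates above 20%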;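 note: 0% = compound-free wells with enzyme and 100% = wells lacking proteasome; stock transfer was 100 nL into about 20 µL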
Target sequence (Q9Y5K5 whole entry, looked up): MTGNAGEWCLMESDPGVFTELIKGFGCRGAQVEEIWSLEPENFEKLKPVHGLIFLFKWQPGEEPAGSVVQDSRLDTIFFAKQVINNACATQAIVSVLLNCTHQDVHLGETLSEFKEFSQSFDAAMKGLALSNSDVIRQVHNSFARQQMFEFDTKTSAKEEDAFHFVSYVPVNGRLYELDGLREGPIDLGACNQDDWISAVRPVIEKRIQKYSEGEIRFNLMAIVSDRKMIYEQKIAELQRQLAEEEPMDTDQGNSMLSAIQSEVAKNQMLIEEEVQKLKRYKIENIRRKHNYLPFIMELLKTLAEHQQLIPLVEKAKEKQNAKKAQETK
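Reagent: Ub-AMC substrate; assay system: Proteasome-associated human UCH37 deubiquitinase; controls: no-proteasome and no-compound wells; read-out: % inhibition of Ub-AMC cleavage fluorescence; timing: 30 min preincubation with enzyme, 25 min cleavage at room temperature; signal: AMC fluorescence from Ub-AMC cleavage, excitation 355 nm, emission 460 nm; buffer or medium: Tris-HCl pH 7.4 plus ovalbumin, ATP-MgCl2, DTT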
LANA-H2A inh = blocks KSHV LANA binding to histone H2A/H2B; AID 2629; inhibition, % (test concentration not listed); cell-free LANA-H2A/H2B peptide, fluorescence polarization; Q9QR71; actives 0.6% (n = 320,000); in the data active = inhibition mostly above about 10%, no sharp cut-off; inactive = mostly below about 6.7%;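 note: stock transfer was 7.5 nL into about 10 µL; 0% = median of vehicle wells and 100% = median of positive control wells; one replicate is shown; the record names a cut of 25% in any replicate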
RanGTP-Imp inh = inhibitors of RanGTP-importin-beta interaction, primary screen, biochemical, FRET, CFP-Ran, YFP-importin-beta, homogeneous; cell-free CFP-Ran/YFP-importin-beta FRET ratio; inhibition, % (no concentration beside the values); actives 1.1% (n = 300,000); AID 2216;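 active = most replicates above 15%; inconclusive = exactly half above 15%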;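 note: 0% = DMSO wells and 100% = Ran loaded with GDP instead of GTP; wells of about 40 µL received 100 nL stock; the first replicate is given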
B2AR ag = human beta-2 adrenergic receptor agonism by FAP | P07550 | Am2.2-beta2AR cells, FAP receptor internalization, flow cytometry; reference of the scale not given here | response, % (no concentration beside the values) | actives 0.43% (n = 340,000) | AID 504454;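 active = response above a set limit, near 3 SD of response in nonfluorescent compounds, cut at about 42% in these data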;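 note: stock transfer was 100 nL into about 11 µL; a reference agonist was the positive control; negative values mostly stem from fluorescent compounds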
Target sequence (P07550 whole entry, looked up): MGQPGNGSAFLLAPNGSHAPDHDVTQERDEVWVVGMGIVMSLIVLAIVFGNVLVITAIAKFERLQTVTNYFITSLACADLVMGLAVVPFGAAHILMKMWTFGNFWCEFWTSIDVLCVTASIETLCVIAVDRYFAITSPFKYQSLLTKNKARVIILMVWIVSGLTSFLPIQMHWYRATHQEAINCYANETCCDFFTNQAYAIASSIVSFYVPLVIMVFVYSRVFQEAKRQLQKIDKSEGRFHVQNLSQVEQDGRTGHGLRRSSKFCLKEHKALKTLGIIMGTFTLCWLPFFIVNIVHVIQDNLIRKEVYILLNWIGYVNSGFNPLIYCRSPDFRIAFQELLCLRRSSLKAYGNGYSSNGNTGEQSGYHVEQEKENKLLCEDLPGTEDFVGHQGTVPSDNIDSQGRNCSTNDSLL
A1 inh = inhibitors of the anti-apoptotic protein A1, read as caspase activation | caspase activation, % (no concentration beside the values) | AID 2462 | MEF A1-2A-BIM cells, Caspase-Glo 3/7 luminescence, 3 h; percent of clofoctol response, vehicle zero | actives 0.066% (n = 330,000);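 active = over half of replicate activation scores above 10%, or exactly half above 10 with the replicate mean above 10; inconclusive = replicate mean below 10 yet half the replicates above 10; inactive = over half of replicates below 10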;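 note: wells of about 30 µL received 50 nL stock; many hits fall short of the cut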
Calb FLC = C. albicans growth modulation with fluconazole; actives 0.57% (n = 300,000); C. albicans CaCi-2 (fluconazole-resistant clinical isolate) + fluconazole, Alamar Blue growth, 48 h; growth inhibition, % (concentration not given with the values);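 active = most replicates above 75%; inconclusive = exactly half above 75%; inactive = most below 75%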;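 note: all wells also contain fluconazole at 8 µg/ml as a sub-toxic cotreatment; 0% = median of DMSO wells and 100% = median of geldanamycin control wells; wells of about 8 µL received 7.5 nL stock; the first replicate is given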
Starred values were filed as active, the others as inactive; ? = inconclusive; / = no result given.

SMILES	T cruzi inh	Beta apoptosis	UCH37 inh	LANA-H2A inh	RanGTP-Imp inh	B2AR ag	A1 inh	Calb FLC
C=CCn1c(SCC(=O)NC(=O)NC)nnc1C1CCCCC1	-4.4	-0.6	0.7	-1.7	2.2	-4.2	1.2	-24.8
COCCN(C(=O)CSc1nnc(-c2ccc(Cl)cc2)o1)c1c(N)n(CC(C)C)c(=O)[nH]c1=O	-4.9	3.4	-0.1	2.1	-1.7	-3.8	-0.1	1.5
CCC/C=N/NC(=O)c1cc(-c2ccccc2)nc2ccccc12	-7.9	-0.9	/	2.6	-1.0	-3.6	0.5	5.4
COc1cc(C(=O)N/N=C/c2ccc(OC(=O)c3cccc(C)c3)c(OC)c2)ccc1O	2.2	-2.7	/	-1.1	4.1	11.9	-1.0	-2.7
CCCCCCCCn1cnc2c(N)c(C)c(C)cc21	-21.1	-14.9	2.5	0.0	?	-0.2	1.0	-41.5
COc1ccc(NS(=O)(=O)c2ccc(C(=O)N3CCN(Cc4ccccc4)CC3)cc2)cc1	16.4	20.3	1.1	-1.9	1.8	-2.0	-0.5	31.0
Cc1ccc(C(=O)N2CCCC(Nc3cccc(F)c3)C2)cc1N1CCNC1=O (stereo not given)	5.9	/	2.7	-1.6	?	4.0	0.7	-4.2
O=C(NNC(=O)c1ccccc1F)c1cccs1	-5.7	-5.9	-0.4	-1.2	0.3	0.4	-0.6	-0.2
Cc1cccc(-n2c(=S)[nH]c3sc4c(c3c2=O)CCc2ccccc2-4)c1	3.0	/	9.7	/	3.6	6.5	/	18.9
C[C@H]1CN([C@@H](C)CO)C(=O)c2cccc(NS(=O)(=O)c3ccc(F)cc3)c2O[C@H]1CN(C)Cc1ccc(Cl)c(Cl)c1	/	-7.2	1.9	2.4	/	8.8	0.0	/
CC(=O)Nc1ccc(NC(=O)CSc2nc3c([nH]c4ccccc43)c(=O)n2-c2ccccc2F)cc1	5.4	5.4	-2.0	-2.3	-0.1	4.4	1.0	7.4
COc1cccc(/C=C2\SC(=S)N(CCCC(=O)NC3=NCCS3)C2=O)c1	7.1	-8.9	7.4	2.4	-1.8	1.5	-0.1	0.3
COc1ccc(C(=O)N2CCC(O)(c3ccc(Cl)cc3)CC2)cc1OC	13.3	4.0	2.0	-2.6	?	-0.7	0.9	-0.7
CCOc1ccc(S(=O)(=O)NCCC(=O)N2CC=C(c3ccccc3)CC2)cc1	/	0.1	1.8	3.0	/	2.8	-0.3	/
CCN=C1SC(CC(=O)NC2CCCCC2)C(=O)N1CC (stereo not given)	0.7	0.5	5.9	0.5	-2.2	4.2	0.7	4.8
O=C(CN(c1ccc(F)cc1)S(=O)(=O)c1ccccc1)Nc1ccccc1C(=O)O	-6.0	/	1.4	1.0	-0.1	-2.5	-1.6	22.7
COc1ccc(NC(=O)CC(c2ccc(F)cc2)c2ccc(OC)cc2)cc1 (stereo not given)	-3.7	2.6	1.4	-1.1	1.0	-2.0	0.5	-8.9
CNC(=O)COC(=O)/C=C/c1cn(-c2ccccc2)nc1-c1ccc2c(c1)OCCO2	19.5	-4.5	-0.7	-1.8	3.5	4.8	-0.6	-1.6
COc1ccc(NC(=O)CCCn2c(=O)oc3ccccc32)cc1Cl	-7.7	-7.9	4.0	9.5	?	0.7	-0.4	25.7
COCCNS(=O)(=O)c1cc(C)c(C)cc1C	-1.3	-6.5	2.9	-3.9	0.1	-1.4	0.1	-0.6

Random excerpt: 6 entries already listed, in no set order.
SMILES	T cruzi inh	Beta apoptosis	UCH37 inh	LANA-H2A inh	RanGTP-Imp inh	B2AR ag	A1 inh	Calb FLC
COc1cc(C(=O)N/N=C/c2ccc(OC(=O)c3cccc(C)c3)c(OC)c2)ccc1O	2.2	-2.7	/	-1.1	4.1	11.9	-1.0	-2.7
COc1ccc(NS(=O)(=O)c2ccc(C(=O)N3CCN(Cc4ccccc4)CC3)cc2)cc1	16.4	20.3	1.1	-1.9	1.8	-2.0	-0.5	31.0
COc1ccc(C(=O)N2CCC(O)(c3ccc(Cl)cc3)CC2)cc1OC	13.3	4.0	2.0	-2.6	?	-0.7	0.9	-0.7
COCCN(C(=O)CSc1nnc(-c2ccc(Cl)cc2)o1)c1c(N)n(CC(C)C)c(=O)[nH]c1=O	-4.9	3.4	-0.1	2.1	-1.7	-3.8	-0.1	1.5
CCN=C1SC(CC(=O)NC2CCCCC2)C(=O)N1CC (stereo not given)	0.7	0.5	5.9	0.5	-2.2	4.2	0.7	4.8
COc1ccc(NC(=O)CCCn2c(=O)oc3ccccc32)cc1Cl	-7.7	-7.9	4.0	9.5	?	0.7	-0.4	25.7

Later entries.
SMILES	T cruzi inh	Beta apoptosis	UCH37 inh	LANA-H2A inh	RanGTP-Imp inh	B2AR ag	A1 inh	Calb FLC
CC(=O)Nc1ccc(Nc2nc(-c3sc(NC(C)=O)nc3C)cs2)cc1	-4.1	-12.5	/	-5.7	2.8	9.3	-6.7	-2.0
S=C1NCN(Cc2cccnc2)CN1Cc1ccccc1	?	1.8	-0.7	0.8	3.2	6.8	0.8	0.0
O=C(NCCCO)c1cc([N+](=O)[O-])cc2c1C=Cc1ccccc1O2	35.6	1.3	2.6	3.1	1.4	-4.7	-0.7	8.9
CC1CC(C)CN(CC(=O)Nc2cc(S(=O)(=O)N3CCOCC3)ccc2N2CCCC2)C1 (stereo not given)	/	-0.3	-2.0	8.0	/	2.9	1.8	/
O=C(CN(Cc1ccccc1)C(=O)c1csnn1)NCCc1ccccc1	3.1	-1.9	1.8	-4.4	2.6	-2.6	0.0	-9.5
O=C(NC1CCN(Cc2ccccc2)CC1)c1cccc(OC(F)F)c1	35.9	4.0	4.6	3.0	4.3	6.1	-0.3	-4.1
O=c1c2[nH]c3ccc(F)cc3c2nc2n1CCS2	-1.0	0.7	-6.4	1.6	-0.4	4.2	0.3	3.3
CCN(CCCNC(=O)C1CCN(S(=O)(=O)c2cnc[nH]2)CC1)c1cccc(C)c1	3.5	-3.2	1.9	3.1	-4.4	8.1	0.6	20.8
O=C(NCc1ccc(Cl)c(Cl)c1)C1CCCC1	9.9	-2.2	-1.1	-0.4	-1.0	-1.2	-0.3	-8.3
Cc1cc(C)c(S(=O)(=O)c2ccccc2)c(OC(=O)c2c(F)cccc2F)n1	-22.0	-14.4	5.7	-0.4	-2.1	-1.2	0.5	18.4
Cc1cccc(CCNC(=O)c2cc(S(=O)(=O)N3CCOCC3)cn2C)c1	-4.0	1.4	3.0	1.1	3.4	-3.5	-0.1	-0.7
Cc1nn(-c2ccccc2)nc1C(=O)Oc1cc(C(F)(F)F)nn1-c1ccccc1	-10.2	1.7	3.9	1.6	2.1	2.7	0.5	-20.0
CCCNS(=O)(=O)c1ccc(OCC(=O)NCCC2=CCCCC2)cc1	5.0	-12.4	36.4*	4.0	0.0	5.0	0.3	0.3
CC(C)(C)[C@H]1COC(=O)[C@@H](NC(=O)OCC2c3ccccc3-c3ccccc32)C/C=C\C[C@@H](CC(=O)N[C@@H](CO)Cc2ccccc2)C(=O)N1	/	39.9	1.6	2.5	/	-2.3	0.2	/
Cc1ccc(OCC(=O)N2CCN(C3=NS(=O)(=O)c4ccccc43)CC2)cc1	-1.6	4.3	1.4	-0.4	-1.6	-6.3	0.5	2.4
O=C(/C(=C(\O)c1ccccc1)c1nc2ccccc2[nH]1)c1ccccc1	22.1	/	4.8	11.2	?	-8.3	0.5	-4.5
Cc1cc2cc(CN3C(=O)c4ccccc4C3=O)ccc2n1C	83.0*	99.7*	1.8	-0.6	/	-10.2	0.5	6.1
C=CCc1cc(OC)ccc1OCCON1C(=O)CCC1=O	-1.2	0.9	1.6	0.9	3.9	2.4	1.2	-1.0
Cc1cc(/C=C2/NC(=O)NC2=O)c(C)n1-c1sc2c(c1C#N)CCCC2	19.5	-9.6	0.7	0.9	10.1	9.6	0.5	-0.4
CC1CC(C)CN(C(=O)COC(=O)COc2ccc(C#N)cc2)C1 (stereo not given)	/	-1.1	0.8	2.2	/	0.7	0.7	/

With a hit mark in UCH37 inh, of those listed so far:
| canonical_smiles | UCH37 inh | LANA-H2A inh | RanGTP-Imp inh | B2AR ag |
| --- | --- | --- | --- | --- |
| CCCNS(=O)(=O)c1ccc(OCC(=O)NCCC2=CCCCC2)cc1 | 36.4* | 4.0 | 0.0 | 5.0 |

More results
SMILES	T cruzi inh	Beta apoptosis	UCH37 inh	LANA-H2A inh	RanGTP-Imp inh	B2AR ag	A1 inh	Calb FLC
CC1=C(C(=O)OCc2ccccc2)C(c2ccc([N+](=O)[O-])cc2)NC(=O)N1 (stereo not given)	8.6	-1.9	1.3	4.1	-2.3	4.3	0.6	3.8
O=C(CN1C(=O)COc2ccc(S(=O)(=O)N3CCCC3)cc21)NCc1ccccn1	5.2	-3.4	-0.2	1.5	8.2	-8.7	0.0	-7.9
COc1ccc(NC(=O)C2C3C=CC4(CN(Cc5cccnc5)C(=O)C24)O3)c(OC)c1 (stereo not given)	-5.9	-0.5	5.9	-1.4	0.7	-1.2	-0.4	-5.5
CCC(OC(C)=O)c1cc2c(cc1[N+](=O)[O-])OCCO2 (stereo not given)	-2.4	-5.5	3.5	-4.3	2.5	12.2	0.3	10.9
CCCCn1c(SCc2cccc([N+](=O)[O-])c2)nc2ccsc2c1=O	18.0	2.8	4.2	2.3	?	-7.3	0.0	2.1
COc1cccc(NC(=O)c2ccc(-n3cccn3)nc2)c1	-12.2	-6.7	1.1	4.2	1.5	-0.8	-2.4	1.7
COc1ccccc1-n1nnnc1SCC(=O)NCC1(N2CCOCC2)CCCCC1	/	-1.6	-4.1	1.7	/	1.1	-0.2	/
Cc1nc(SCC(=O)NCc2ccco2)c2oc3ccccc3c2n1	16.9	-1.6	0.4	3.6	1.1	-14.9	0.1	-6.5
COc1cc(-c2csc(CCn3nc(C)cc3C)n2)cc(OC)c1OC	-17.9	3.1	0.2	-2.9	5.2	5.7	0.1	3.0
O=C(CN1C(=O)c2cccc3cccc1c23)NCc1ccccn1	-4.8	-9.5	-22.6	-7.1	-13.8	4.5	0.2	-0.6
CSc1nc(N)nc(SCC(=O)C23CC4CC(CC(C4)C2)C3)c1C#N	65.3*	10.5	4.1	-2.5	3.9	-6.5	-0.2	-0.7
Cc1c(N=Cc2ccc(Cl)o2)c(=O)n(-c2ccccc2)n1C	-3.0	4.7	11.5	22.9*	-1.0	-4.9	1.5	9.9
CCOc1ccccc1NC(=O)Cn1[nH]c(=O)c2ccccc2c1=O	10.2	-0.5	4.1	1.9	-0.2	-11.8	0.4	1.5
CCCCn1c(N)c(N(CCOC)C(=O)c2oc3ccc(OCC)cc3c2C)c(=O)[nH]c1=O	-5.3	4.5	-3.9	2.5	4.3	-9.4	-0.9	2.3
CN(C)S(=O)(=O)c1cccc(C(=O)OCC(=O)NCc2ccccc2)c1	-18.3	0.9	2.3	2.6	-1.8	-3.9	0.1	0.4
O=C(Nc1cccc(S(=O)(=O)NC2=NCCC2)c1)C1CC(=O)N(c2ccc3c(c2)OCCO3)C1 (stereo not given)	-0.3	-0.8	0.4	-3.1	?	21.6	0.4	0.7
CCCc1nc2ccc([N+](=O)[O-])cc2[nH]1	3.6	-11.1	3.1	-4.4	-2.0	-4.3	-0.9	-3.2
